VACV Venus inh – inhibitors of vaccinia virus (Venus reporter) | Potency, µM (series often up to 36.5 µM), without a hit: top-dose activity change, negative = inhibition, actives largely listed as inhibitors | Vaccinia virus Venus reporter expression, fluorescence | AID 720580 | actives 0.46% (n = 330,000); active means well fitted inhibition curve with a large enough effect; inconclusive means small, poorly fitted or top-dose-only effect; inactive means no such curve, though single readings can be large or run the other way; tested in A549 cells; note: nearly all actives have a fitted effect of over 30% in size; inactives centre near -10
Vaccinia mCherry – vaccinia inhibition (mCherry reporter) | Vaccinia virus mCherry reporter infection, fluorescence; about a quarter of the inactives have no number | Potency, µM (titrated, usually from 36.5 µM), inactives show at the top dose activity change, negative = inhibition, actives largely listed as inhibitors | actives 0.63% (n = 310,000) | AID 720579; active = well fitted inhibition curve with a large enough effect; inconclusive = small, poorly fitted or top-dose-only effect; inactive = no such curve, though single readings can be large or run the other way; tested in A549 cells; note: nearly all actives have a fitted effect of over 35% in size; inactives centre near -10
* = called active by the depositor; i = inactive; ? = inconclusive; . = not tested or not shown; & = joins results of further samples; [ ] = another dose, or the depositor's remark. % is set by controls: 0 for no effect and ±100 for the full control effect; potency is the fitted concentration of half-maximal effect. Hits appear at their usual frequency; overall some 0.82% were active at least once.

SMILES	VACV Venus inh	Vaccinia mCherry
Clc1ccc2nc(-c3ccc4c(c3)OCO4)cn2c1	-18%	-24%
CN(CCC#N)Cc1cc(=O)oc2ccc3ccccc3c12	0%	i
COc1ccnc(Oc2ccc(F)cc2)c1C(=O)N/C=N/OCc1ccc(F)cc1Cl	-15%	i
CCCn1c(=O)c2sccc2n2c(CCCC(=O)N3CCN(c4ccccc4)CC3)nnc12	-1%	-11%
COc1ccccc1-c1ccnc(-n2ncc(C(=O)NCC3(N4CCOCC4)CCCC3)c2C)n1	-10%	-14%
CCCCCN(CCCCC)C(=O)C(CCC(=O)O)NC(=O)c1ccc(Cl)c(Cl)c1 (stereo unspecified)	-9%&-17%	-9%&-13%
O=C1OC(N2CCN(C(=O)C3CCCO3)CC2)c2ccccc21 (stereo unspecified)	-17%	-18%
Cc1ccc(S(=O)(=O)NC(=O)C2(C)CCN2C(=O)COc2ccc(Cl)cc2)nc1 (stereo unspecified)	-11%	21%
COc1c(C)cccc1C(=O)NC(=S)Nc1cccc2nsnc12	-28%	i
CC(=O)c1ccc(OC2(C)CCN(Cc3cccn3-c3nccs3)C2)cc1 (stereo unspecified)	3%	0%

Brought forward from above: 3 entries, followed by the next part.
SMILES	VACV Venus inh	Vaccinia mCherry
Cc1ccc(S(=O)(=O)NC(=O)C2(C)CCN2C(=O)COc2ccc(Cl)cc2)nc1 (stereo unspecified)	-11%	21%
COc1c(C)cccc1C(=O)NC(=S)Nc1cccc2nsnc12	-28%	i
CC(=O)c1ccc(OC2(C)CCN(Cc3cccn3-c3nccs3)C2)cc1 (stereo unspecified)	3%	0%
COC(=O)c1ccc(CSC2=NC[C@@H]3[C@@H]4C(=O)N(Cc5ccccc5)C(=O)[C@@H]4[C@](Cc4ccccc4)(C(=O)OC)N23)cc1	-12%	i
O=C(NC(=S)Nc1ccc(S(=O)(=O)N2CCCCC2)cc1)c1cccs1	-22%	-9%
COc1ccc(CNC(=O)c2nnn(-c3cccc(C(F)(F)F)c3)c2N)cc1	-18%	-13%
CCc1n(CC(O)COC2CCCCC2)c2ccccc2[n+]1C (stereo unspecified)	-9%	i
CCCCc1n[nH]c2c1C(=O)CC(C)(C)C2	-13%	.
CC(=O)N(Cc1ccccc1)c1ccccc1C(=O)O	-4%	-3%
CCN(c1ccccc1)S(=O)(=O)c1cccc(C(=O)N(C)CCOc2ccccc2)c1	-22%	-15%
Cc1ccc(C(=O)Nc2cccc(OCc3cc(=O)n4c5c(sc4n3)CCCC5)c2)cc1	-4%	-8%
Cc1ccccc1C(=O)Nc1ccc(C(=O)OCc2cc(=O)n3c4c(sc3n2)CCCC4)cc1	-16%	i
Cc1ccc(S(=O)(=O)N/N=C/c2ccc(O)cc2O)cc1[N+](=O)[O-]	0%	-8%

Random excerpt: 2 records from the list
SMILES	VACV Venus inh	Vaccinia mCherry
CCN(c1ccccc1)S(=O)(=O)c1cccc(C(=O)N(C)CCOc2ccccc2)c1	-22%	-15%
COc1ccc(CNC(=O)c2nnn(-c3cccc(C(F)(F)F)c3)c2N)cc1	-18%	-13%

Returning to the listing, repeating the 4 entries before the break.
SMILES	VACV Venus inh	Vaccinia mCherry
CCN(c1ccccc1)S(=O)(=O)c1cccc(C(=O)N(C)CCOc2ccccc2)c1	-22%	-15%
Cc1ccc(C(=O)Nc2cccc(OCc3cc(=O)n4c5c(sc4n3)CCCC5)c2)cc1	-4%	-8%
Cc1ccccc1C(=O)Nc1ccc(C(=O)OCc2cc(=O)n3c4c(sc3n2)CCCC4)cc1	-16%	i
Cc1ccc(S(=O)(=O)N/N=C/c2ccc(O)cc2O)cc1[N+](=O)[O-]	0%	-8%
COc1ccc(NC(=O)NNC(=O)c2ccc(-c3ccccc3)cc2)c(OC)c1	-19%	-4%
CCC(C)(C)C1CCc2[nH]nc(C(=O)NCCN3CCOCC3)c2C1 (stereo unspecified)	-23%	i
COc1cccc(-c2c(-c3cc(OC)cc(OC)c3)n(C)c3ccc(-c4ccc(OC)nc4)cc23)c1	-4%	-14%
c1ccc(Nc2ncnc3ccc(-c4ccc5c(c4)OCO5)cc23)cc1	45%[activator]	i
O=C(Nc1ccccc1Cl)c1cc(S(=O)(=O)N2CCCC(C(=O)O)C2)ccc1F (stereo unspecified)	-4%	i
Cc1ccc(CCNC(=O)c2nnc(CS(=O)(=O)c3ccccc3)o2)cc1	-7%	i
O=C(NNc1c(Cl)cc(Cl)cc1Cl)C1CCC1	-6%	-15%
Cc1ccc(NC(=O)C2CCN(S(=O)(=O)c3ccc4c(c3)CCCC(=O)N4)CC2)c(Cl)c1	-3%	-11%
O=C(NCCc1ccccc1)C(=O)NCC(c1cccs1)S(=O)(=O)c1cccs1 (stereo unspecified)	-12%	-17%
CCc1ccc(NC(=O)C(CC)n2nnc(C(=O)OC)c2C(=O)OC)cc1 (stereo unspecified)	-1%	8%
COc1ccc(-n2ccnc(SCC(=O)NC3CCCC3)c2=O)cc1	-4%[7.34 µM]	-4%[7.34 µM]
Cc1cccc(NC(=O)c2cccc(S(=O)(=O)N3CCCC3)c2)n1	-9%	-12%
Cc1cc2c(cc(C(=O)OC(C)C(=O)NCc3ccccc3)n2C)o1 (stereo unspecified)	-1%	-23%
CCc1ccc(C(=O)O)cc1	-7%	i
C/C(=N\O)C(C)Oc1ccc(Cl)cc1 (stereo unspecified)	1%	1%
O=C(Nc1ccc(Br)cc1)C1CCN(c2cnccn2)CC1	-11%&-3%	-7%&-13%
C=CC[C@@H](CC(=O)N[C@H](CO)Cc1ccccc1)C(=O)N[C@H](COC(=O)[C@@H](CC=C)Cc1ccc(F)cc1)C(C)(C)C	?	?
CCSc1nnc(NC(=O)c2ccc(C)cc2)s1	-9%	i
CN1CCN(C2=C(Cl)C(=O)c3ccccc3C2=O)CC1	10µM*	?
Cc1cc(Br)ccc1NC(=O)c1cc2c(s1)-c1ccccc1SC2	-6%	-10%
Cc1nc(N2CCN(c3ccccc3)CC2)[nH]c(=O)c1C	-20%	i
CCc1nnnn1-c1ccc([N+](=O)[O-])cc1C	0%	-12%
CCOc1ccc(C(=O)NCC(=O)NCC(c2ccc(OC)cc2)N2CCCC2)cc1 (stereo unspecified)	-20%	i
CCOC(=O)C1CCN(C(=O)c2ccc(OCC(=O)Nc3ccc(OCC)cc3)c(OC)c2)CC1	-8%	i
CCc1nnc(NC(=O)CCCSc2nc3ccccc3[nH]2)s1	-2%	-20%
O=C(NCc1cccs1)c1ccc(S(=O)(=O)N2CCOCC2)cc1	-13%	-19%
COc1cccc(C(=O)NC(=S)Nc2ccc3oc(=O)ccc3c2)c1	2%	-15%
C/C(=N\O)c1ccccc1C(=O)O	18%	.
CC(C)c1ccc(NC(=O)c2cnc3sc(N4CCCC4)nn3c2=O)cc1	?	-8%
Cc1ccccc1CNC(=O)c1ccc2nc(N3CCOCC3)sc2c1	-12%	i

Entries of single compounds from above. Screens in order: VACV Venus inh | Vaccinia mCherry
`COc1cccc(C(=O)NC(=S)Nc2ccc3oc(=O)ccc3c2)c1` is listed as 2% | -15%
`CC(C)c1ccc(NC(=O)c2cnc3sc(N4CCCC4)nn3c2=O)cc1` is listed as ? | -8%

Carrying on.
SMILES	VACV Venus inh	Vaccinia mCherry
Cc1cccc(-c2nnc(SCc3nc4ccccc4[nH]3)n2Cc2ccco2)c1	?	-9%[1.46 µM]
CC(=O)c1cccc(N=Nc2c(-c3ccccc3)[nH]n(-c3ccccc3)c2=O)c1	3%	10%
Cc1cc(C(=O)N2CCN(c3ccccc3O)CC2)c(C)o1	-14%	i
N#Cc1c(NC(=O)CSc2n[nH]c(Cc3ccccc3)n2)oc(-c2ccccc2)c1-c1ccccc1	-1%	-7%
CCOC(=O)C1=C[C@@H](C(C)C)N(S(=O)(=O)c2ccc(C)cc2)[C@H]1c1ccc(C(F)(F)F)cc1	-3%	22%
COc1ccc(OC)c(CNC(=O)c2ccc(Sc3ccc(C)cc3)c(N)c2)c1	?	?
O=C(CCNS(=O)(=O)c1ccccc1)N1CCCCCCC1	1%	0%
CCc1nnc2c3ccccc3nc(N3CCN(c4ccc(C)cc4C)CC3)n12	14%	8%
COc1ccc(OC)c(S(=O)(=O)N2CCCC2C(=O)N2CCc3ccccc3C2)c1 (stereo unspecified)	-12%	-15%
Cc1ccccc1OCCN(C#N)c1nc(N(C)C)nc(N(C)C)n1	-9%	-14%
Cc1cc(C)n(-c2ccc(C(=O)Nc3cccc(S(=O)(=O)N4CCCC4)c3)cc2)n1	-10%	i
Cc1ccc(OCc2ccoc2C(=O)O)cc1C	-18%	i
COc1ccc(NC(=O)COC(=O)Cc2c[nH]c3ccccc23)cc1OC	-2%	-13%
CCOC(=O)c1ccc(NC(=O)CSc2nc(-c3ccc(F)cc3)cc(C(F)(F)F)c2C#N)cc1	?	?
COc1cc2c(cc1OC)[C@@H]1C(=O)c3ccc(O)c(CC=C(C)C)c3OC1CO2 (stereo partly specified)	-27%	i
Cc1cc(C)n(CC(=O)N2c3ccccc3Sc3ccccc32)n1	-20%	-22%
CCc1nnc(NS(=O)(=O)c2ccc(N/C=C\C(=O)c3cccc(OC)c3)cc2)s1	1%	-5%
CCc1ccccc1NC(=O)COc1ccc(C(=S)N2CCCC2)cc1	-10%	-17%
COc1ccc(OC)c(-n2nnnc2SCC(=O)NCCc2ccccc2)c1	-8%	-16%
Cc1ccc(Cl)cc1NC(=O)N1CCc2cc(S(=O)(=O)N3CCC(C)CC3)ccc21	-20%	-19%
CCOc1ccc(S(=O)(=O)N2CCN(C(=O)c3cccn3C)CC2)cc1	-19%	?
C/C(=N\NC(=O)C1CCCN(S(=O)(=O)c2ccccc2)C1)c1cccnc1 (stereo unspecified)	-10%	.
CC(C)N(CCO)C(=O)CCc1nnc(Cc2cccc(C(F)(F)F)c2)o1	-18%	i
Cc1ccc(-c2cc(C(F)(F)F)n3ncc(C(=O)N4CCCc5ccccc54)c3n2)cc1	-15%	-8%
CCCc1nc(Cl)c(C#N)c2c1CCCC2	-9%	-8%
O=[N+]([O-])c1cccc(/C=C2\CCC(/C=N/Nc3ccc4ccccc4n3)=C2N2CCOCC2)c1	-5%	-17%
C=Cn1ccnc1P(=S)(c1ccc(Cl)cc1)c1nccn1C=C	-10%	-8%
CC(C(=O)OCc1nnc(-c2ccccc2)o1)N1C(=O)C2CCCCC2C1=O (stereo unspecified)	-11%	-14%
CCS(=O)(=O)c1nc(S(=O)(=O)c2ccc(Cl)cc2)c(NCCN2CCOCC2)s1	-15%	i
COc1cccc(NS(=O)(=O)c2cc(-c3cnc(C4CC4)o3)ccc2C)c1	?	?
CCN(CC)C(=O)n1cnc(-c2ccccc2)c1-c1ccccc1	-14%	i
CCCCN(C(=O)c1ccc2c(c1)OCO2)c1ccccc1	15%	i
CC(c1ccco1)N(C(=O)c1cccs1)c1ccccn1 (stereo unspecified)	-9%	-11%
COc1cccc(C(=O)Nc2cccc(-c3ccc4nncn4n3)c2)c1OC	4%	i
CCC1CN(S(=O)(=O)c2cc(-c3cc(C)no3)ccc2C)c2cc(Cl)ccc2O1 (stereo unspecified)	-10%	-9%
C=CCNc1ncnc2c1ncn2[C@H]1CN(Cc2ccco2)C[C@@H](CO)O1	0%	27%
Cn1c(=O)c2c(ncn2CC(=O)OCC(=O)Nc2ccccc2)n(C)c1=O	-15%	i
COc1ccc(S(=O)(=O)N2CCC(N3CCN(Cc4ccccc4)CC3)CC2)cc1	-7%	i
O=C(CCN1CCN(c2ccccc2F)CC1)Nc1ccccc1F	-6%	.
O=S(=O)(Nc1cccc(-c2nc3cccnc3s2)c1)c1cccs1	-17%	1%
CCOc1ccccc1NC(=O)c1c2c(nc3ccccc13)C(=O)N(C1CCCCC1)C2	-10%	-20%
COCCOC(=O)/C=C1/NC(=O)CS1	-7%	i
CS(=O)(=O)N(CC(=O)Nc1ccc(F)cc1)C1CCCCC1	-10%	-5%
Cc1ccc(NC(=O)CCC(=O)c2ccc(F)cc2)cc1Cl	-22%	.
COc1ccc(CCCc2nnc(SCC(=O)Nc3ccc(OC)cc3)o2)cc1	-5%&-8%	0%
CC(=O)c1cccc(-c2ccnc3c2CC(C(=O)Nc2ccccc2)O3)c1 (stereo unspecified)	-1%	-15%
CCCc1noc(-c2ccc(NCc3ccc(C)cc3)c([N+](=O)[O-])c2)n1	1%	-2%
c1ccc(CCCNCCCn2cnc3c(OCc4ccccc4)ncnc32)cc1	-24%	-25%
O=C(CCc1nc2ccccc2c(=O)[nH]1)Nc1cccc(S(=O)(=O)N2CCCCC2)c1	-20%	-23%
NS(=O)(=O)c1cccc(NC(=O)Cn2nc(C(=O)O)c3ccccc3c2=O)c1	-18%	-16%

(cont.)
SMILES	VACV Venus inh	Vaccinia mCherry
CCCOc1ccccc1C1NC(=O)NC(C)=C1C(=O)OCCOCC (stereo unspecified)	-11%	.
O=C(Nc1nc(C2C3CC4CC(C3)CC2C4)cs1)c1cc2cc([N+](=O)[O-])ccc2oc1=O (stereo unspecified)	-6%	-10%
COc1cc2c(cc1NC(=O)Nc1ccc(C)cc1)oc1ccccc12	-10%	-25%
O=C(O)c1ccc2c(=O)[nH]c(CCl)nc2c1	-15%	i
Cc1ccc(NC(=S)NNc2ncc(C(F)(F)F)cc2Cl)cc1	?	?
CNC(=O)c1ccc(-n2nc(C)cc2-c2ccccc2)cc1	-10%	-22%
CCOc1cccc(CNCCSc2nnnn2C)c1	-11%	-5%
c1ccc(CSC2=NNC(c3ccccn3)S2)cc1 (stereo unspecified)	?	?
Cc1ccccc1-c1cc2nc(C)c(C)c(=O)n2[nH]1	-10%	i
CC(C)(C)NC(=O)C1c2ccccc2OCC(=O)N1C1CC1 (stereo unspecified)	-10%	-9%
COc1ccc(-c2nc3c4ccccc4n(CC(=O)N4CCN(c5ccc(F)cc5)CC4)c(=O)n3n2)cc1	-2%	-6%
O=C(Nc1ccccc1C(F)(F)F)c1ncn[nH]1	-8%	-4%
